Bioassay records deposited in PubChem BioAssay by several laboratories.
MT1-MMP act inh: inhibitors of human MT1-MMP activation; P50281; HT1080 RFP-PRO-GFP cells, GFP/RFP ratio fluorescence, overnight; percent of plate control window, DMSO zero; GFP/RFP ratio change, % at 20 µM; 0.061% of 360,000 active; AID 651647;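 active = GFP/RFP ratio change of at least 30% with cell ATP level not reduced by more than half and red fluorescence within 50% of control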; note: strong numbers were not always called active
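Material – HT1080 RFP-PRO-GFP cells · Control set – DMSO wells and RFP-L50D-GFP cells · Incubation – overnight cell settling, then overnight compound exposure, 37 °C, 5% CO2 · Compound dosing – single-point 20 µM compound, 1% DMSO · Read-out – GFP/RFP fluorescence ratio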
Env fusion inh: inhibitors of HIV Env-mediated cell fusion. HeLa-JRFL Env/CEM21 cell fusion, luciferase. inhibition, % at 12.3 µM. 1.1% of 360,000 active;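 active = mean replicate inhibition score of at least 50 and every replicate individually at or above 50; inconclusive = only one of the two criteria met; inactive = mean below 50 and not all replicates reaching 50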;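 note: 0% = plate neutral controls and 100% = maraviroc near 300 nM; one replicate is shown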
MT1-MMP act inh RFP: second read-out of MT1-MMP act inh, no call of its own (marks repeat the call); RFP signal change, %; measured here: RFP expression control read;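 0 = vehicle wells; hits needed this value within 50% of zero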
Numbers without * were called inactive; i = inactive; ? = inconclusive; & = joins results of further samples; [ ] = another dose, or the depositor's remark. Not all compounds are listed; rates above refer to the full screens.

SMILES	MT1-MMP act inh	MT1-MMP act inh RFP	Env fusion inh
CCOc1ccc(NC(=O)CSc2nnc(C)n2C2CC2)cc1S(=O)(=O)N1CCCC1	-10	2	19
CCCCCc1c(-c2cccc(Br)c2)ncn1CCc1ccccc1OC	-4	-18	12
O=C1NC[C@H](CCCCN2C[C@H](Cc3ccc(O)cc3)N(CCc3ccccc3)C(=O)C2=O)N(CCC2CCCCC2)C1=O	4	3	-11
COC(=O)C(C(=O)OC)c1ccccc1NS(=O)(=O)c1c(C)cc(C)cc1C	0	-3	-31&8
CC1=NS(=O)(=O)NC(C)(C)C1	-2	1	-6
C#CCNC(=O)C[C@@H]1C[C@@]2(C(=O)OCC)CCC=C2N(CCC2=CCCCC2)C1=O	5	2	22
C[C@H]1CN(Cc2ccccc2)C(=O)[C@@H]1CC(=O)Nc1ccccc1	0	0	-5
O=C1COc2ccccc2C(c2nc3ccccc3[nH]2)N1Cc1ccccc1 (stereo unspecified)	6	8	-18
CC(=O)OCC(=O)C1(O)CCC2C3CCC4=CC(=O)CCC4(C)C3(Cl)C(O)CC21C (stereo unspecified)	1	4	-100
CN(C)c1nc(=NCc2cccs2)ss1	3	6	-29
COc1ccc(C(C(=O)c2ccccc2)c2ccccc2)cc1 (stereo unspecified)	3	0	-7
CCOC(=O)CC1(C)N(S(=O)(=O)c2ccc(C)cc2)c2ccccc2N1S(=O)(=O)c1ccc(C)cc1	2	1	11
COc1cc(OC)c(OC)cc1/C=C/c1ccnc2ccccc12	-1	-8	-49
CC[C@@H]1Cc2[nH][nH]c(=O)c2[C@@H](c2ccc(Cl)cc2)O1	1	0	-12
C[C@@H](NC(=O)[C@@H]1CCCN1C(=O)[C@@H]1CCCN1C(=O)OC(C)(C)C)c1ccccc1	3	4	-14

Reformatted: results already given.
The line under a structure holds: MT1-MMP act inh | MT1-MMP act inh RFP | Env fusion inh
> CCCCCc1c(-c2cccc(Br)c2)ncn1CCc1ccccc1OC
→ -4 | -18 | 12
> O=C1NC[C@H](CCCCN2C[C@H](Cc3ccc(O)cc3)N(CCc3ccccc3)C(=O)C2=O)N(CCC2CCCCC2)C1=O
→ 4 | 3 | -11
> COC(=O)C(C(=O)OC)c1ccccc1NS(=O)(=O)c1c(C)cc(C)cc1C
→ 0 | -3 | -31&8
> CC1=NS(=O)(=O)NC(C)(C)C1
→ -2 | 1 | -6
> C#CCNC(=O)C[C@@H]1C[C@@]2(C(=O)OCC)CCC=C2N(CCC2=CCCCC2)C1=O
→ 5 | 2 | 22
> C[C@H]1CN(Cc2ccccc2)C(=O)[C@@H]1CC(=O)Nc1ccccc1
→ 0 | 0 | -5
> O=C1COc2ccccc2C(c2nc3ccccc3[nH]2)N1Cc1ccccc1 (stereo unspecified)
→ 6 | 8 | -18

Next structures follow.
SMILES	MT1-MMP act inh	MT1-MMP act inh RFP	Env fusion inh
Cc1cc(C)cc(Cn2cc(CN3CC(N4CCSCC4)CS3(=O)=O)nn2)c1 (stereo unspecified)	3	3	-26
CC(C)C[C@H]1CN([C@@H](Cc2ccccc2)CN2CCC[C@H]2CN2C(=O)C(=O)NC[C@@H]2Cc2ccc(O)cc2)C(=O)C(=O)N1CCc1ccccc1	-3	-1	6
O=C1c2cccc(NCCNCCO)c2C(=O)c2cccc(NCCNCCO)c21	42	15	59*
Cc1ccc(NCCN(C)C)c2c(=O)c3cc(O)ccc3sc12	3	6	-67
C[C@@H]1Cc2[nH][nH]c(=O)c2[C@H](c2ccc(Cl)cc2)O1	3	5	2
COc1ccc(Cc2c(-c3cccc(Br)c3)nc3cc(C)c(Br)c(C)n23)c(C)c1	3	-4	34
COC(=O)CC1C(=O)NCCN1C(=O)c1oc2c(C)c(C)ccc2c1C (stereo unspecified)	0	-2	22
COc1nc(N)nc2c1ncn2C1OC(CO)CC1O (stereo unspecified)	-2	-7	-5
N#C/C(=C/C1=C(N2CCOCC2)C(=C/c2ccc(Cl)cc2Cl)/CC1)C(=O)Nc1ccccc1F	17	59	-7
CCn1c(SCC(=O)Nc2oc(C)c3c(C)n[nH]c(=O)c23)nnc1-c1ccco1	-4	-1	-2
COc1ccc(Cn2cc(CN3CC(N4CCN(C5CCN(C)CC5)CC4)CS3(=O)=O)nn2)cc1 (stereo unspecified)	1	0	7
CCCCCNC(=O)c1nc(-c2c(F)cccc2F)oc1-c1ccccc1	-4	-5	16
CC(C)(C)C(=O)c1c(N)[nH]c(C(=O)c2ccccc2)c1-c1ccccc1Br	-2	-4	11
COC(=O)[C@]12CCCCC=C1N(CCC1=CCCCC1)C(=O)[C@H](CC(=O)NCc1cccc(C(F)(F)F)c1)C2	-6	-6	8
c1ccc(CCCCc2ccncc2)cc1	-2	-1	-8
CC1=C(C(=O)N2CCCCCC2)CC(CC(=O)NC2CCCCC2)C(=O)N1CCC1=CCCCC1 (stereo unspecified)	5	-5	-3
CC(C)[C@H](NC(=O)OC(C)(C)C)c1cc(C(=O)NCCc2c[nH]c3ccccc23)c(N)s1	-5	-6	0
O=C1NC[C@@H](CCCCN2CCN(CCc3ccc(O)cc3)C(=O)C2=O)N(Cc2ccccc2)C1=O	5	5	-33
C[C@@H](NC(=O)[C@@H]1CCCN1C(=O)[C@@H]1CCCN1)c1ccccc1	-3	5	4
O=C(NCc1cccnc1)OC1CC2CC1[C@H]1CCCCN1C2=O (stereo partly specified)	0	5	?
COc1cccc(C(C(=O)NCc2ccccc2)N2CCN(C(=O)C3CCCO3)CC2)c1OC (stereo unspecified)	2	4	-12
COc1ccc(C(=C(CC(=O)O)C(=O)OC(C)(C)C)c2cc(OC)c(OC)c(OC)c2)cc1OC	-1	1	-5
CCCCCc1c(-c2ccc(Cl)cc2)ncn1CCc1ccccc1OC	-7	-19	30
COCCCNC(=O)C[C@@H]1C[C@@]2(C(=O)OC)CCCCC=C2N(Cc2cccc3ccccc23)C1=O	-5	-3	26
Cc1cc(-c2ccccc2)nc(Nc2nc3c(C)cccc3c(=O)[nH]2)n1	-4	-3	-113
O=C(NCc1ccccc1)C(c1ccccc1)n1c(-c2ccccn2)nc2ccccc21 (stereo unspecified)	2	4	-14
O=C(CN1CCN(C(=O)C2CC2)CC1)Nc1ccc(Cl)cc1F	4	0	-12
O=C(NC1CCCCC1)C1c2ccccc2OCC(=O)N1Cc1cccnc1 (stereo unspecified)	2	7	-33
Cc1[nH]nc(C(F)(F)F)c1N=NN1CCOCC1	-10	-23	24
COc1ccc(-c2sc3ccccc3c2-c2ccc(OC)cc2F)cc1	-1	-2	-6
Cn1ncc2c(=O)[nH]c(N)nc21	2	3	-9
CC(C)(C)C1CCN2CCCC(c3ccc([N+](=O)[O-])cc3)(C1)C21OCCO1 (stereo unspecified)	0	-11	44
O=C(NC(=S)NCc1ccccc1Cl)c1cccs1	-1	1	7
CSc1cnn(CCC#N)c(=O)n1	7	6	32
COC(=O)c1ccc2nc(-c3ccc(C)cc3)c(Cc3ccc(C)cc3)n2c1	-4	-9	-24
CNC(=O)C1CCC(=O)N1Cc1c[nH]c2ccccc12 (stereo unspecified)	-1	2	-8
COC(=O)[C@@]12C[C@@H](CC(=O)N3CCC(c4ccccc4)CC3)C(=O)N(Cc3ccc4c(c3)OCO4)C1=CCC(C)(C)C2	-6	-17	21
CC1(C(=O)NC2CCN(Cc3ccccc3)CC2)CCN1Cc1ccc(OC(F)(F)F)cc1 (stereo unspecified)	3	-4	26
CCOC(=O)c1cc2ccccc2n1C1CCN(C)CC1	0	0	2
COc1ccc(C(C(=O)NC2CCCC2)n2c(CSCCOc3ccccc3)nc3ccccc32)cc1 (stereo unspecified)	3	0	78*
COC(=O)[C@]12CCCCC=C1N(Cc1ccccc1)C(=O)[C@H](CC(=O)NCc1ccc(OC)c(OC)c1)C2	3	0	-22
Cc1cc(C)c2cc(C#N)c(NCCNC(=O)c3ccccn3)nc2c1	1	2	-4
O=c1[nH]c(=S)[nH]c2c1C(c1ccc(F)cc1)OC(CCc1ccccc1)C2 (stereo unspecified)	3	-4	17
CCC1(c2ccccc2)C(=O)N=C(N)N(C#N)C1=O (stereo unspecified)	0	7	i
COC(=O)C1C2CC3c4[nH]c5cc(OC)ccc5c4CCN3CC2CC(OC(=O)CC(C)=O)C1OC (stereo unspecified)	-56	7	1

Shown field by field: part of the list above
smiles: O=c1[nH]c(=S)[nH]c2c1C(c1ccc(F)cc1)OC(CCc1ccccc1)C2 (stereo unspecified)
  MT1-MMP act inh: 3
  MT1-MMP act inh RFP: -4
  Env fusion inh: 17

smiles: CCC1(c2ccccc2)C(=O)N=C(N)N(C#N)C1=O (stereo unspecified)
  MT1-MMP act inh: 0
  MT1-MMP act inh RFP: 7
  Env fusion inh: i

Continuation:
SMILES	MT1-MMP act inh	MT1-MMP act inh RFP	Env fusion inh
O=C(C[C@@H]1CC[C@@H]2[C@H](COC[C@H](O)CN2Cc2cccc(C(F)(F)F)c2)O1)NCc1ccc(Cl)cc1	6	-2	28[16.7 µM]
CCCCc1c(-c2ccccc2OC)ncn1CCc1ccc(Cl)cc1	-7	-16	-4
CCCCNC(=O)C[C@@H]1C[C@@]2(C(=O)OCC)CCCC=C2N(Cc2ccc3c(c2)OCO3)C1=O	6	1	-99
Cc1cccc(C)c1-n1nnnc1C1(C)CCC(=O)N1Cc1ccc(F)cc1 (stereo unspecified)	0	-3	-7
CCCS(=O)(=O)NC(=O)C1(C)CCCN(C(=O)c2ccc(OC)cc2)C1 (stereo unspecified)	0	2	-9
O=C1NC[C@H](CCCCN2C[C@H](Cc3ccccc3)N(CCC3CCCCC3)C(=O)C2=O)N(CCC2CCCCC2)C1=O	1	-15	-22
O=c1cc(-c2ccccc2)nc2c(Cl)cc(Cl)cn12	3	2	-40
COc1cc(/C=N/NC(=O)c2ccccc2NS(=O)(=O)c2cccs2)ccc1O	1	-1	7
O=S1(=O)CC(N2CCCC2)CN1Cc1cn(Cc2ccccc2)nn1 (stereo unspecified)	4	7	-32
COc1ccc(NC(=O)C2C(c3ccc4c(c3)OCO4)=Nc3ccccc3N2C(=O)c2cccc(C(F)(F)F)c2)cc1 (stereo unspecified)	-22	-10	-17
COc1cccc(C(=O)NCC[N+](C)(C)C)c1	-2	5	-12
Cc1cccc(C)c1NC(=O)C(CCc1ccccc1)N1CCC(c2ccccc2)CC1 (stereo unspecified)	-9	-26	-21
Cc1ccc(F)c(S(=O)(=O)NC(=O)C2(C)CCN2C(=O)Cc2ccsc2)c1 (stereo unspecified)	-6	2	4
CCCc1c(-c2cccc(F)c2)ncn1Cc1ccccc1OC	0	-13	-5
COc1ccc(CN2C(=O)CN(S(C)(=O)=O)CC2(C)C(=O)Nc2ccc3c(c2)OCCO3)cc1OC (stereo unspecified)	-2	-2	-13
CN(Cc1cn(Cc2ccccc2)nn1)C1CN(Cc2cn(Cc3ccccc3)nn2)S(=O)(=O)C1 (stereo unspecified)	3	4	24
CC(C)C[C@H]1CN(CCCC[C@@H]2CNC(=O)C(=O)N2CCc2ccccc2)C(=O)C(=O)N1CCc1ccccc1	2	1	-44
Cc1cccc(C)c1NC(=O)C1c2ccccc2OCC(=O)N1CCc1c[nH]c2ccccc12 (stereo unspecified)	-1	-1	-41
CN(C)c1ccc(C=c2c3cc(O)ccc3n3c2cc(-c2ccccc2)[n+]3C)cc1	1	52	64*
O=C(COc1ccc([N+](=O)[O-])cc1)NC(=O)NC1CCS(=O)(=O)C1 (stereo unspecified)	4	4	-6
O=C(NC1CCCCC1)C(C1CC1)n1c(=O)c(-c2cc3ccccc3[nH]2)nc2ccccc21 (stereo unspecified)	-5	-7	27
COc1cc(C2c3cc4c(cc3OC(NCCc3ccccc3)C2C)OCO4)cc(OC)c1OC (stereo unspecified)	17	6	-7
NC(=O)NN=C1CCC(OCc2ccccc2)CC1CC(=O)O (stereo unspecified)	4	7	-10
CN(Cc1ccc(Cl)c(Cl)c1)C(C(=O)NCc1ccccc1)c1ccco1 (stereo unspecified)	-15	-10	-1
CCOC(=O)[C@]12CCCC=C1N(Cc1ccco1)C(=O)[C@H](CC(=O)N1CCCC1)C2	2	7	5
COc1ccc(NC(=O)C2c3ccccc3OCC(=O)N2Cc2cccnc2)cc1 (stereo unspecified)	2	5	-39
OC(c1cc(F)cc(Cl)c1)c1ncc(-c2ccc3ccccc3c2)[nH]1 (stereo unspecified)	0	-5	-8

Sorted by the number under MT1-MMP act inh (descending): 5 from the list above.
SMILES	MT1-MMP act inh	MT1-MMP act inh RFP	Env fusion inh
NC(=O)NN=C1CCC(OCc2ccccc2)CC1CC(=O)O (stereo unspecified)	4	7	-10
CN(Cc1cn(Cc2ccccc2)nn1)C1CN(Cc2cn(Cc3ccccc3)nn2)S(=O)(=O)C1 (stereo unspecified)	3	4	24
COc1ccc(NC(=O)C2c3ccccc3OCC(=O)N2Cc2cccnc2)cc1 (stereo unspecified)	2	5	-39
OC(c1cc(F)cc(Cl)c1)c1ncc(-c2ccc3ccccc3c2)[nH]1 (stereo unspecified)	0	-5	-8
Cc1cccc(C)c1NC(=O)C1c2ccccc2OCC(=O)N1CCc1c[nH]c2ccccc12 (stereo unspecified)	-1	-1	-41
